MLL AF4-AF9 inh: inhibitors of human MLL-AF4/AF9 interaction; P42568; AlphaScreen, biotin-AF4 peptide binding to FLAG-AF9; inhibition, % at 10 µM; actives 0.47% (n = 350,000); AID 651704;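 active means every replicate reaching a set inhibition limit, whatever the replicate mean, cut at about 25% in these data; inconclusive means mean inhibition reaches that limit but some replicates miss it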;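 further: 0% = plate neutral control median and 100% = total signal loss; the record names both 10 and 1 µM as test concentration; the first replicate is given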
Calb FLC: affects C. albicans growth with fluconazole. C. albicans CaCi-2 (fluconazole-resistant clinical isolate) + fluconazole, Alamar Blue growth, 48 h. actives 0.57% (n = 300,000). growth inhibition, % (no concentration beside the values);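 active means most replicates above 75%; inconclusive means exactly half above 75%; inactive means most below 75%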;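 further: all wells also contain fluconazole at 8 µg/ml as a sub-toxic cotreatment; 0% = median of DMSO wells and 100% = median of geldanamycin control wells; wells of about 8 µL received 7.5 nL stock; the first replicate is given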
Beta cell apopt: beta cell apoptosis inhibition. INS-1E cytokine-induced death, ATP luminescence, 48 h; percent of positive-control rescue, neutral wells zero. protection from apoptosis, % (concentration not given with the values). actives 0.8% (n = 300,000);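 active means all replicates at 75% or more, or half of them and the mean; inconclusive means half reach 75% but not the mean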;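 further: 0% = cytokine-treated negative control wells and 100% = positive control rescue; higher means more ATP so stronger rescue from cytokine killing; wells of about 40 µL received 100 nL stock; the first replicate is given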
Vif TR-FRET: inhibitors of Vif binding to APOBEC3G peptide, primary screen, biochemical, TR-FRET, GST-Vif 1-94, biotin-A3G peptide, dose response retest (AID 1117319); TR-FRET GST-Vif / biotin-A3G peptide binding; higher % means a stronger effect; test concentration not given here; strong numbers were not always called active; one-dose inhibition, %; IC50 in µM for titrated hits; actives 0.57% (n = 260,000);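 active means above the screen mean plus three standard deviations and confirmed in dose response; inconclusive means results disagree or hit not tested in dose response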;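 further: Vif residues 1-94 fused to GST binding biotinylated APOBEC3G peptide 110-148; 0% = full assay without inhibitor and 100% = GST in place of GST-Vif; retest series ran down from 100 µM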
LANA-H2B inh: blocks KSHV LANA binding to histone H2A/H2B; actives 0.6% (n = 320,000); Q9QR71; cell-free LANA-H2A/H2B peptide, fluorescence polarization; inhibition, % (no concentration beside the values); in the data active means inhibition mostly above about 10%, no sharp cut-off; inactive means mostly below about 6.7%;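 further: stock transfer was 7.5 nL into about 10 µL; 0% = median of vehicle wells and 100% = median of positive control wells; one replicate is shown; the record names a cut of 25% in any replicate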
Target sequence (Q9QR71 whole entry, looked up): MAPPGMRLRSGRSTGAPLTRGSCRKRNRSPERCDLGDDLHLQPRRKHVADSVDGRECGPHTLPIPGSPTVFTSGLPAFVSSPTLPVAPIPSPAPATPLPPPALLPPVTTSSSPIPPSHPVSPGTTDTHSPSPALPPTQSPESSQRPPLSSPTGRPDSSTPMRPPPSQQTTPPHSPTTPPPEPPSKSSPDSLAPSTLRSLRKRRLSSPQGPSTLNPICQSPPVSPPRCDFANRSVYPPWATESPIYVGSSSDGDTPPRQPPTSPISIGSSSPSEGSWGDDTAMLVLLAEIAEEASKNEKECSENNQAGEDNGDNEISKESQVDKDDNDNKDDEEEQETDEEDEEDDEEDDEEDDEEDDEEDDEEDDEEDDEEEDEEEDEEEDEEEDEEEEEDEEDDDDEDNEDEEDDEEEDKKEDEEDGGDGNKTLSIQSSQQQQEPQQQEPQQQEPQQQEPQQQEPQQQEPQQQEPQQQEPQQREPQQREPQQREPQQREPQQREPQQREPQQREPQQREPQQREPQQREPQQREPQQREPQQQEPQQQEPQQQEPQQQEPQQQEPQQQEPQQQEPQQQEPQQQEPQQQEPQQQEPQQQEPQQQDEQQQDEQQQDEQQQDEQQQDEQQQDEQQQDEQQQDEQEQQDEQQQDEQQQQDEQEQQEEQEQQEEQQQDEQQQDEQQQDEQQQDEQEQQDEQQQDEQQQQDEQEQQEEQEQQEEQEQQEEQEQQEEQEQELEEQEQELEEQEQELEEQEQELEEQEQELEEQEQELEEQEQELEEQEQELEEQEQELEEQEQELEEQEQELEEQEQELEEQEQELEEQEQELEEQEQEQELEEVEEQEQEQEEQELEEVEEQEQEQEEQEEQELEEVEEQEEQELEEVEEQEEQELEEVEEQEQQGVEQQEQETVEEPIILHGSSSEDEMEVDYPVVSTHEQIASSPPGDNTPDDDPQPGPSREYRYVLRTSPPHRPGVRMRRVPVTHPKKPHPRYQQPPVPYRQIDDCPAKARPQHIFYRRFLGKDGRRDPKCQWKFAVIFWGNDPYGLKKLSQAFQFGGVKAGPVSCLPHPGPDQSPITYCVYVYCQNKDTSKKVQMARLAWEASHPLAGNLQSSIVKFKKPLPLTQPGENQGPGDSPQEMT
RanGTP-Imp inh: disruptors of Ran-importin-beta complex formation – biochemical, FRET, CFP-Ran, YFP-importin-beta, homogeneous, primary screen; cell-free CFP-Ran/YFP-importin-beta FRET ratio; inhibition, % (concentration not given with the values); actives 1.1% (n = 300,000); AID 2216;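 active means most replicates above 15%; inconclusive means exactly half above 15%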;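 further: 0% = DMSO wells and 100% = Ran loaded with GDP instead of GTP; wells of about 40 µL received 100 nL stock; the first replicate is given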
T cruzi repl: T. cruzi replication inhibition | T. cruzi beta-gal in NIH3T3, luminescence, 90 h | inhibition, % (concentration not given with the values) | actives 1.4% (n = 300,000);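 active means mean inhibition across valid replicates above about 55%, limit read from the data; inconclusive means mean below that limit but half or more replicates reach it; inactive means mean below it, under half of replicates reach it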;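 further: signal also drops with host cell toxicity which is not excluded here; 0% = plate median of DMSO wells and 100% = zero luminescence signal; higher percent means less beta-gal luminescence so fewer parasites; stock transfer was 50 nL into about 50 µL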
A1 inh: inhibitors of the anti-apoptotic protein A1, read as caspase activation | MEF A1-2A-BIM cells, Caspase-Glo 3/7 luminescence, 3 h; percent of clofoctol response, vehicle zero | caspase activation, % (concentration not given with the values) | actives 0.066% (n = 330,000) | AID 2462;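 active means over half of replicate activation scores above 10%, or exactly half above 10 with the replicate mean above 10; inconclusive means replicate mean below 10 yet half the replicates above 10; inactive means over half of replicates below 10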;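 further: wells of about 30 µL received 50 nL stock; many hits fall short of the cut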
* marks the source's active call; other numbers are inactive results; ? = inconclusive; / = no result given; & = joins results of further samples. An unsorted share of the library; 4.3% or so of the library scored in one or more.

nr	compound	RanGTP-Imp inh	LANA-H2B inh	Beta cell apopt	T cruzi repl	MLL AF4-AF9 inh	A1 inh	Calb FLC	Vif TR-FRET
1	O=C(Nc1nnc(-c2ccccc2)o1)C1CCCN1S(=O)(=O)c1cccs1 (stereo not given)	2.2	-13	-11	-7	0.3	2.4	4	-4%
2	COCCN(C(=O)COC(=O)CC1CCCCC1)c1c(N)n(Cc2ccccc2)c(=O)[nH]c1=O	-3.7	4.3	/	-2	-3.4	-0.1	1	-1%
3	O=C(CSc1nc2ccccc2n1CC(=O)N1CCCC1)Nc1ccc2c(c1)OCO2	1.3	2.7	-1	4	/	1.2	-13	-1%
4	COc1ccc(N(C(C)C(=O)N/N=C(\C)C(C)(C)C)S(C)(=O)=O)cc1 (stereo not given)	2.8	0.3	-5	-6	2.8	-0.3	-7	10%
5	COc1cc([N+](=O)[O-])ccc1N/C=C/C(=O)c1cccs1	26*	4.1	16	8	/	-8.2	5	1%
6	CN(Cc1ccccc1)C(=O)c1cc(S(=O)(=O)N2CCOCC2)cn1C	-0.9	-6.7	-3	-5	-5.5	0.3	-7	/
7	CCCCN(C)CCCNC(=O)c1cc(Nc2ccc(OC)c(OC)c2)nc2ccccc12	0.8	2.2	-3	25	22	0.3	-9	4%
8	Cc1c(C(=O)O)sc(=S)n1CCOc1ccccc1	5.8	-2.4	-4	-12	/	-0.7	-4	6%
9	Cc1cc(NC(=O)c2cccs2)ncc1NC(=O)c1cccc(F)c1	1.5	-0.5	6	-26	1.2	-5.9	38	?
10	Cc1noc(C)c1-c1nnc(-c2ccc(C(F)(F)F)cc2)o1	3.2	8.5	-7	3	-0.6	-2.6	3	-7%
11	CCCCCCc1c(C)nc(-n2[nH]c(C)c(CCO)c2=O)[nH]c1=O	2.1	2.1	3	-15	-0.7	0.3	93*	/
12	CCOC(=O)c1ccc(NC(=O)C2(c3ccccc3)CCCC2)cc1	2.4	6.6	-4	40	/	0.1	-4	3%
13	CCOC(=O)c1sc(N2N=C(C)/C(=C\c3ccc(OCC(=O)OC)cc3)C2=O)nc1C	-3.4	/	2	1	/	-0.6	43	6%
14	O=C(NS(=O)(=O)Oc1cccc(F)c1)OC[C@@H]1CCCN2CCCCC12 (stereo not given in full)	3.1	3.2	-7	-2	4.0	0.6	22	1%
15	Cc1ccc(NC(=O)c2cccc(-n3cnnn3)c2)cc1Cl	/	1.4	5	/	-1.2	0.2	/	/
16	O=C(CSc1nnc(Cn2c(=O)sc3ccccc32)n1-c1ccccc1)N1CCCCCC1	/	-0.4	-1	/	0.2	-0.6	/	26%
17	Cc1ccc(CN(C(=O)c2ccco2)C(C(=O)NC2CCCC2)c2ccc(N3CCOCC3)cc2)cc1 (stereo not given)	0.6	-1.4	-2	3	/	0.5	5	?
18	COc1ccc(C2CC(c3cccs3)=NN2C(=S)Nc2ccccc2)cc1OC (stereo not given)	-2.1	2.4	/	8	9.2	0.6	-6	/
19	COc1ccc(C(=O)Nc2nnc(Cc3ccccc3)s2)c(OC)c1	6.1	2.5	0	10	-0.8	1.2	3	0%
20	CC1(C)CC(=O)C2=C(C1)NC(=O)CC2c1cccc(F)c1 (stereo not given)	1.1	-0.9	1	-29	/	0.4	9	2%
21	Cc1cc(C)c(C)c(S(=O)(=O)NCC(=O)Nc2ccc(F)cc2)c1C	4.8	1.1	2	-1	-3.3	-1.8	7	-6%
22	COc1ccc(OC)c(C(=O)COC(=O)c2ccc([N+](=O)[O-])o2)c1	/	-3.0	0	/	9.2	-0.9	/	/
23	COc1cc(CNCCCN2CCOCC2)c(Br)cc1OCC(=O)Nc1ccccc1C	0.3	2.7	-4	30	1.0	0.8	-7	12%
24	O=C(Nc1cccnc1)c1cc(-c2ccc(Cl)cc2)on1	-3.2	-4.2	-3	4	?	-2.6	17	-7%
25	COc1ccc(OCCOc2ccc(S(=O)(=O)N3CCCC3)cc2C(N)=O)cc1	/	-3.9	3	/	1.3	1.2	/	/
26	COc1ccc(S(=O)(=O)N2CCOC2CNC(=O)C(=O)NCc2cccnc2)cc1C (stereo not given)	1.2	-3.6	-2	-3	-11	0.7	2	?
27	CC(C)(C)S(=O)(=O)c1cnc2c(S(=O)(=O)c3ccccc3)cnn2c1N	3.9	-0.4	-2	14	-12	0.2	21	-7%
28	Cc1cc(=O)n2nc(N3CCCC(C(=O)N4CCN(C)CC4)C3)sc2n1 (stereo not given)	3.0	0.8	-3	-13	/	0.8	1	20%
29	CCOc1c(Cl)cc(C(=O)Nc2cccc(C(=O)O)c2)cc1Cl	-1.0	-2.3	-1	-12	-1.6	-7.2	-18	/
30	CC(C)COc1ccc(C(=O)OCC(=O)NCCC2=CCCCC2)cc1	-0.2	-3.3	-4	-9	3.3	0.9	-3	3%
31	Cc1ccc(NC(=O)C2CCN(S(=O)(=O)c3ccc4c(c3)NC(=O)C(C)S4)CC2)cc1Cl (stereo not given)	2.8	-5.2	107*	19	0.8	-0.1	19	/
32	COc1ccc(C2CC(=O)C(C=NCCN3CCN(C(=S)Nc4ccccc4)CC3)=C(O)C2)cc1 (stereo not given)	-2.1	4.1	/	-2	1.3	-0.4	-5	9%
33	COc1ccc(OCCNS(=O)(=O)c2cccc([N+](=O)[O-])c2)cc1	0.7	0.5	4	-3	0.9	-0.2	-8	0%
34	COc1ccc(Cl)c(S(=O)(=O)N2CCCC2)c1	4.8	-1.8	-8	10	/	0.6	19	1%
35	Cc1nn(-c2ccccc2)c2nc(N)c(C#N)c(-c3ccc(O)c(O)c3)c12	-0.8	0.7	-1	42	0.9	-0.1	-12	-7%
36	C#CCn1cc(/C=C2\NC(=O)NC2=O)c2ccccc21	0.3	-3.3	-7	-15	-1.6	0.1	-8	-1%
37	CCOCCc1c(O)nc(SC)[nH]c1=O	-0.6	0.9	1	9	-0.9	1.7	-2	-3%
38	COc1ccc(C(=O)Nc2cc3c(cc2C#N)OCO3)cc1S(=O)(=O)N1CCN(C)CC1	2.0	5.8	-2	-11	-1.2	0.9	-11	1%&6%
39	CC1=CC(C)(C)C(C(=O)O)C(C(=O)O)C1 (stereo not given)	0.4	9.2	-3	-4	/	-0.8	7	-1%
40	COc1ccc(C(=O)NC2CCCCCC2)cc1S(=O)(=O)Nc1ccc(Br)cc1	-0.8	-1.4	0	5	/	-0.2	-4	4%&-4%
41	COc1cccc(CN(Cc2cccnc2)S(=O)(=O)c2ccc(-n3cnnn3)c(C)c2)c1OC	-0.9	-0.1	-5	?	7.5	0.0	3	1%&0%
42	COC(=O)c1ccccc1NC(=O)c1ccc(COc2ccc(C)c(C)c2)o1	5.6	-2.2	3	0	/	-0.7	-15	11%
43	Cc1c([N+](=O)[O-])c([N+](=O)[O-])nn1CC(=O)N1CCCCC1	3.8	0.7	1	9	2.2	-1.2	-2	-2%
44	CC(C)[C@H](NC(=O)c1ccccc1F)C(=O)OCC(=O)NC(=O)NC1CCCCC1	/	-1.2	-8	/	-1.8	0.2	/	/
45	CCCCCn1c(=O)[nH]c2cc(C(=O)NCCCN3CCCCC3CC)ccc2c1=O (stereo not given)	-5.0	-2.6	-7	1	-0.3	0.5	1	/
46	CCOc1cccc(CN2CCN(Cc3ccc(C)o3)C(CCO)C2)c1O (stereo not given)	-3.6	5.7	-9	-8	-5.3	0.5	-20	/
47	COc1ccc(OC)c(NC(=O)c2ccccc2SC)c1	-0.6	-31	-2	-12	/	0.6	-8	7%
48	CC(=O)NCCc1ccc(S(=O)(=O)Nc2ccc(NC(=O)c3ccc(F)cc3)cc2)cc1	6.1	-5.0	-4	-10	-12	-0.9	-6	5%
49	Cc1cc(C(=O)NCCCn2ccnc2)sc1-c1ccccc1	?	-2.3	68	21	/	-0.4	-5	10%
50	CC(C)[C@H](NC(=O)c1ccccc1)C(=O)OCC(=O)N1CCCc2ccccc21	2.5	-0.5	-2	25	-5.4	0.6	-41	/
51	Nc1c(-c2ccccc2)nc(Cl)nc1-c1ccccc1	-1.7	0.3	-6	3	/	-1.0	1	-2%
52	Cc1ccc(CN2CC(C(=O)NC(c3nc4ccccc4[nH]3)C(C)C)CC2=O)cc1 (stereo not given)	/	1.0	2	/	-1.0	0.7	/	3%
53	Fc1cccc(-c2oncc2-c2nnnn2-c2ccc(Cl)cc2)c1	0.6	2.6	-4	-15	/	-0.4	8	?
54	O=C(COC(=O)c1ccc(Br)o1)Nc1nc2c(F)c(F)c(F)cc2s1	2.7	0.3	-1	-4	-2.1	-0.4	-3	-14%
55	COc1cc(OC)c(C(=O)Nc2cc(Cl)ccc2-n2cncn2)cc1OC	9.2	0.7	5	1	-2.3	0.9	16	-7%
56	Cc1ccc(CNC(=O)N[C@@H](Cc2ccccc2)C(=O)O)cc1	-0.7	-0.9	-4	-2	-2.3	0.0	4	-7%
57	CCc1cc2c3c(c(=O)oc2cc1OCC(=O)OC)CCCC3	-3.1	-1.0	-7	-6	-5.3	0.5	6	3%
58	CC1(C)CC(=O)C=C(NCc2cccc(C(F)(F)F)c2)C1	3.2	-4.2	3	6	-6.0	0.8	5	-3%
59	Cc1nnnn1CC(=O)Nc1cccc([N+](=O)[O-])c1	-0.3	2.3	0	-11	0.3	1.5	39	/
60	Cc1ccc(OCCSc2nnc(-c3ccncc3)n2C)cc1	/	-5.4	3	10	/	0.8	-6	76µM*

New compounds follow.
nr	compound	RanGTP-Imp inh	LANA-H2B inh	Beta cell apopt	T cruzi repl	MLL AF4-AF9 inh	A1 inh	Calb FLC	Vif TR-FRET
61	O=C(O)c1ccc(NCc2cccnc2)c([N+](=O)[O-])c1	2.9	-0.9	-1	-8	-3.3	0.3	-2	/
62	CCOC(=O)Cc1csc(NC(=O)Cc2ccc(Br)cc2)n1	1.8	2.6	-7	-3	-5.8	0.5	-10	/
63	Cc1onc(-c2c(Cl)cccc2Cl)c1C(=O)N1CCCCC1	4.2	-9.4	-1	-12	-2.0	-1.4	-4	/
64	Cn1c(=O)[nH]c(=O)c2cc(C(=O)c3cc(F)ccc3O)cnc21	-6.0	3.6	-2	-5	-1.3	0.3	7	?
65	CC(=O)N1CCOCCOCCN(C(C)=O)CCOCCOCC1	1.8	-1.0	-4	-30	-1.9	0.5	102*	0%
66	O=S(=O)(c1cccs1)N1CCN(CCOc2ccc(Cl)cc2)CC1	/	-2.4	-6	/	1.1	0.3	/	9%
67	CCN1CCN(C(=O)CN(CC)S(=O)(=O)c2ccc3ccccc3c2)CC1	-3.6	0.2	/	-2	-13	-1.4	-3	/
68	COC(=O)c1cn(C)c2ccc(S(=O)(=O)N3CCCC3)cc2c1=O	-1.9	1.9	-9	-19	/	0.2	-12	4%
69	CCC(=O)Nc1c2c(nn1-c1ccc(OC)cc1)CSC2	1.7	0.4	-5	-17	-0.1	0.1	-5	2%
70	C/C(=N\Nc1cc(Cl)nc(C)n1)c1ccccc1	3.8	0.4	5	-4	/	-0.4	21	1%
71	COc1cccc(Nc2nc3ccccc3n3nnnc23)c1	3.6	-3.0	11	7	/	0.9	56	0%
72	CC1=NN(c2ccc(C)cc2)C(=O)/C1=C\c1ccc(Br)s1	-1.2	0.4	-7	11	4.5	0.8	3	/
